From PubChem
PABP FP inh: blocks human PABP binding to poly(A) RNA. P11940. fluorescence polarization. 290,000 tested, 1% active. inhibition, % at 35 µM;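 active means 50% or more with normal probe brightness, or confirmed in later tests; inconclusive means above 50% with abnormal brightness, or retests that disagree; inactive means below 50% or failed in later tests; about a fifth of its hits are not listed in these tables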;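 further: calls also rest on retests at 20 µM and on dose response follow-up; controls were probe without protein and protein plus probe with vehicle; some compounds called inactive have numbers as strong as hits; many hits fall short of the cut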
Rce1 inh: inhibitors of yeast Ras-converting enzyme; 290,000 tested, 0.27% active; yeast membranes, quenched prenylated peptide cleavage fluorescence; Q03530; calls only;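 active means fall in fluorescence gain of 50% or more versus controls, with final raw signal at or below 3038400; inconclusive means same 50% fall but final raw signal above 3038400; inactive means fall in fluorescence gain under 50%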;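 further: plate controls were neutral control wells for no effect and wells lacking membranes for full effect; tested at 10 µM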
Target sequence (Q03530 whole entry, looked up): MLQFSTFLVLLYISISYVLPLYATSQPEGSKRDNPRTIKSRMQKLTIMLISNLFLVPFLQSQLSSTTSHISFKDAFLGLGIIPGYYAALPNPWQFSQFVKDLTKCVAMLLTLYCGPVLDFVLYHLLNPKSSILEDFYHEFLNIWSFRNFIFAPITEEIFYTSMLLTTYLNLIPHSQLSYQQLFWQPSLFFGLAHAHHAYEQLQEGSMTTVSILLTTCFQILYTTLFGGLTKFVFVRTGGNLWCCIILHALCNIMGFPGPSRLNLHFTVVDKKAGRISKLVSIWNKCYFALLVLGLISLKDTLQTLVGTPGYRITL
eIF4H inh: inhibitors of RNA binding by human eIF4H | eIF4H fluorescence polarization binding assay | AID 2012 | 290,000 tested, 0.94% active | inhibition, % at 35 µM;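 active means 50% or more with normal probe brightness, or confirmed in later tests; inconclusive means above 50% with abnormal brightness, or retests that disagree; inactive means below 50% or failed in later tests; about a fifth of its hits are not listed in these tables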;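 further: calls also rest on retests at 20 µM and on dose response follow-up; 0% = protein and probe with vehicle and 100% = probe without protein; strong numbers were not always called active; many hits fall short of the cut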
Yeast UUG start: alters start codon recognition fidelity in yeast; S. cerevisiae UUG-firefly luciferase reporter, luminescence/redox ratio; activity score, % at 18.7 µM; 350,000 tested, 0.13% active;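 active means replicate mean at a twofold rise or more, about +100% in these data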;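 further: firefly luciferase made from a UUG start codon reports start codon fidelity; reporter light over untreated wells divided by growth signal over untreated wells; some hits fall short of that in this replicate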
Env fusion inh: blocks HIV Env-driven cell-cell fusion; HeLa-JRFL Env/CEM21 cell fusion, luciferase; inhibition, % at 12.3 µM; 360,000 tested, 1.1% active;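 active means mean replicate inhibition score of at least 50 and every replicate individually at or above 50; inconclusive means only one of the two criteria met; inactive means mean below 50 and not all replicates reaching 50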;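 further: 0% = plate neutral controls and 100% = maraviroc near 300 nM; one replicate is shown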
CSC inhib: cancer stem cell inhibition; cancer stem cell-like cells viability, luminescence; inhibition, % at 7.5 µM; 300,000 tested, 1.1% active; AID 2717;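 active means mean at 75% or more and at least half the replicates too; inconclusive means mean and replicates disagree; tested in HMLE shEcad cells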;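 further: 0% = median of negative and 100% = median of positive control wells; the first replicate is given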
MT1-MMP act inh: blocks activation of human MT1-MMP; P50281; HT1080 RFP-PRO-GFP cells, GFP/RFP ratio fluorescence, overnight; percent of plate control window, DMSO zero; GFP/RFP ratio change, % at 20 µM; 360,000 tested, 0.061% active; AID 651647;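 active means GFP/RFP ratio change of at least 30% with cell ATP level not reduced by more than half and red fluorescence within 50% of control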; further: strong numbers were not always called active
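Assay system: RFP-PRO-GFP reporter HT1080 cells; read-out basis: GFP/RFP fluorescence ratio; benchmarks: DMSO wells and RFP-L50D-GFP cells; doses: 20 µM single dose, 1% DMSO; schedule: overnight cell settling, then overnight compound exposure, 37 °C, 5% CO2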
MT1-MMP act inh RFP: further read-out of MT1-MMP act inh, marked with its call; RFP signal change, %; measured here: RFP expression control read;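 0 = vehicle wells; hits needed this value within 50% of zero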
* = called active by the depositor; i = inactive; ? = inconclusive; / = not tested or not shown. A portion of the library; count on the stated rates, not on these rows.

SMILES,PABP FP inh,MT1-MMP act inh,CSC inhib,Yeast UUG start,MT1-MMP act inh RFP,Rce1 inh,Env fusion inh,eIF4H inh
COc1ccc(NC(=O)COC(=O)Cc2c(F)cccc2Cl)cc1OC,13.6,-0.8,7.8,/,-3.6,i,19.5,-9.8
COC(=O)c1cccc(Nc2nc(-c3ccncc3)nc3ccccc23)c1,-45.8,-1.2,17.5,-11.5,-1.0,i,28.0,-24.9
Cc1ccc(C(=O)NCC(=O)NCc2cc(=O)n(C)c(=O)n2C)cc1,1.4,1.4,-12.7,-25.1,2.8,i,4.9,2.3
O=C1N=C(N2CCOCC2)S/C1=C/c1cc2c(cc1[N+](=O)[O-])OCO2,59.0*,-2.0,9.2,-23.7,1.0,i,-80.1,87.0*
O=C(O)c1ccc(-c2nc(-c3cccc(C(F)(F)F)c3)cs2)cc1,41.7,2.8,/,/,-3.1,i,1.4,7.5
COc1ccc(OC)c(C(=O)N2CCCC(Nc3ccc(F)cc3)C2)c1 (stereo not given),-5.7,-0.7,-7.6,-10.0,-0.3,i,1.1,3.5
COC(=O)c1ccc(C(=O)OC)c(NC(=O)COC(=O)C2CCCCC2)c1,6.6,0.3,-8.9,-4.0,4.5,i,-1.3,-2.1
CC(C)C1C(=O)N(Cc2cn(CC3CCCCC3)nn2)CCS(=O)(=O)N1Cc1ccc(-c2ccc(Cl)nc2)cc1 (stereo not given),/,-0.3,/,-8.5,-10.1,/,24.9,/
CCCc1cc(=O)[nH]c(SCC(=O)NN(c2ccccc2)c2ccccc2)n1,?,6.4,-14.8,/,4.3,i,29.0,-3.5
O=C(CN1CCN(C(=O)c2ccco2)CC1)Nc1ccc(Cl)c(C(F)(F)F)c1,-8.4,5.9,1.0,-9.7,0.5,/,/,-4.3
CCOP(=O)(c1ccc(N(C)C)cc1)C(O)c1ccc(Cl)cc1 (stereo not given),-17.7,13.4,-5.3,0.8,5.5,i,19.3,-4.0
Clc1ccc2oc(-c3cccnc3)nc2c1,8.2,-4.4,-1.5,/,-2.0,i,-210.8,3.9
CCOc1ccccc1NC(=O)c1ccc2ccccc2c1,5.5,-2.4,-4.8,-8.6,-2.7,i,-5.2,3.9
C=CCN(CC=C)Cc1cc(=O)oc2cc(C)c(C)cc12,/,0.0,/,-9.2,-3.6,/,-3.8,/
O=C(CN1C(=O)c2cccc3cccc1c23)N1CCN(c2cccc(Cl)c2)CC1,11.4,0.0,-3.7,-9.5,1.2,i,/,-3.8
CCCCNC(=O)Nc1ccccc1C(=O)Nc1ccc(OC)cc1,-1.6,-1.2,-8.0,/,-1.3,i,/,7.4
Cn1c(Cn2c(=O)sc3ccccc32)nnc1SCC(=O)NCC1CCCO1 (stereo not given),3.3,0.7,-4.1,-15.5,4.4,i,2.8,-8.7
O=C(C1CC1)N1N=C(c2ccc(F)cc2)CC1(O)C(F)(F)F (stereo not given),3.1,2.9,-14.6,-19.1,-0.1,i,-9.8,-9.5
O=C(CN1CCOCC1)NCc1ccccc1Cl,-3.5,-3.6,-4.5,-16.4,0.4,i,2.7,-0.3
COc1ccccc1-c1cc(C2CC2)nc(N)c1C#N,-3.6,2.6,-17.4,-16.5,-3.0,i,-26.5,-4.8
COc1ccc2cc(C3CC(c4cccs4)=NN3S(C)(=O)=O)c(Cl)nc2c1 (stereo not given),-2.8,0.9,68.4,/,-0.2,/,1.0,-1.1
Cc1c(OCC(=O)NC2CCN(Cc3ccccc3)CC2)ccc2c3c(c(=O)oc12)CCC3,14.5,2.5,-5.6,-0.9,0.9,i,-3.8,7.1
COC(=O)c1nc2n(n1)C(c1cccc(Cl)c1)C1=C(CC(C)(C)CC1=O)N2 (stereo not given),9.9,-4.7,-14.1,-35.6,0.2,i,-3.0,-0.5
CCc1nnc(NC(=O)c2cc(-c3cccnc3)nc3ccccc23)s1,-7.8,-1.1,-7.9,/,3.3,i,4.5,2.5
C=CCOc1c(Br)cc(/C=N/O)cc1OCC,-1.9,-6.7,5.9,-7.1,-5.7,i,-38.7,4.8
CN(CCc1ccccn1)S(=O)(=O)c1ccccc1F,17.7,-5.3,-12.4,-10.8,0.1,i,-61.2,-1.2
O=C(Nc1cccc(-c2nnc(-c3ccccc3)o2)c1)C1CC1,3.4,8.8,15.6,2.5,-2.5,i,4.7,-4.2
CN1CCN(CCN2CCn3c2nc2ccccc23)CC1,-6.5,0.4,0.9,-11.0,-2.5,i,/,6.6
CC1CCc2c(sc3nn[nH]c(=O)c23)C1 (stereo not given),1.9,-4.7,-30.2,-9.8,-1.9,i,/,0.1
CC1CCCC(NC(=O)CCNC(=O)c2ccc(Br)cc2)C1C (stereo not given),/,-2.0,-3.6,-5.1,4.9,i,26.6,/
Cc1nnc(CN(C)Cc2cn[nH]c2-c2ccc(-c3ccccc3)cc2)o1,5.7,-1.6,-1.3,-9.4,2.7,i,-2.6,-1.5
COc1cccc(CCNC(=O)C2CCCN(c3ncnc4c3nc3n4CCCCC3)C2)c1OC (stereo not given),7.4,-1.4,-7.2,-11.1,-2.0,i,3.1,-2.1
CCc1ccccc1NC(=O)Nc1cnccn1,-2.2,-1.1,7.3,-12.2,1.4,i,51.2,0.6
CCN(CC)CCCn1c2c(c(SCC(=O)Nc3ccccc3Cl)nc1=O)CCC2,/,-2.6,-1.7,20.2,3.0,i,-11.7,/
CCCCOc1ccc(C(=O)NCCC(=O)NCCCC(=O)OCC)cc1,2.0,1.0,-2.1,/,2.1,i,11.0,6.2
COc1ccccc1Cn1c(C)c(C(=O)NCc2ccc(C#N)cc2)sc1=O,/,5.5,/,-13.2,-7.0,/,1.8,/
Cc1cccc(NC(=O)C2CCN(S(=O)(=O)c3ccc4c(c3)NC(=O)CO4)CC2)c1,6.9,2.3,6.5,-4.2,1.6,i,-3.3,14.1
CCNC(=S)NNC(=O)c1cc(CC(C)C)nc2ccccc12,-0.3,0.2,1.2,-4.8,8.4,i,-0.8,-2.9
O=C(NCC1CCCO1)C(c1ccc(N2CCOCC2)cc1)N(C(=O)Cn1nnc2ccccc21)c1ccccc1F (stereo not given),-0.1,0.7,4.4,/,0.2,i,-1.4,-1.9
N=c1c2c(-c3ccccc3)c(-c3ccccc3)n(Cc3ccco3)c2ncn1CCCO,2.8,0.3,14.5,0.2,-6.8,i,40.8,-4.5
N#CC1(NC(=O)COC(=O)c2nc(Cl)ccc2Cl)CCCCC1,/,-2.4,-1.9,/,0.4,i,-1.4,/
CNC(=S)N(Cc1cccs1)Cc1cc2ccc(OC)cc2[nH]c1=O,-0.6,-0.5,35.1,/,-0.2,i,-14.8,0.7
CCCC(=O)Nc1nnc(COC)s1,1.0,-1.1,-1.2,-4.5,2.2,/,/,2.0
COc1ccc(OC)c(C(=O)Cn2nnc(-c3ccc(N4CCOCC4)cc3)n2)c1,-8.1,3.1,1.7,-16.0,-10.4,i,-9.7,-7.5
COCCn1nnnc1CN(Cc1cccnc1)Cc1cc2cc(OC)ccc2[nH]c1=O,23.5,-0.1,/,-2.6,1.6,i,/,-3.4
Cn1c(=O)[nH]c2nc[nH]c2c1=O,/,4.4,0.5,-0.7,2.5,i,-138.2,/
CC(NC(=O)c1nn(C)c2c1CS(=O)(=O)c1ccccc1-2)c1ccccc1 (stereo not given),-1.0,-0.5,-13.4,/,2.5,i,-10.6,-7.5
O=c1cc(CO)oc(CN2CCC(Cc3ccccc3)CC2)c1O,0.7,0.2,/,-8.7,4.5,i,/,-8.0
O=C(COC(=O)c1ccccc1NC(=O)c1ccco1)NC1CC1,-0.2,0.2,-3.6,/,0.4,i,4.0,-10.6
Nc1cc2c(cc1Br)-c1ccccc1C2=NO,/,-8.5,/,-5.5,-5.5,/,-17.3,/
CC(=O)c1c(C)[nH]c(C(=O)OCC(=O)NCc2ccccc2)c1C,/,4.1,/,1.6,-12.0,/,-13.3,/
NCC12CC3CC(C1)CC(c1ccc(Cl)cc1)(C3)C2,10.8,-25.1,1.3,/,-16.7,i,0.3,-6.8
CCc1ccc(NC(=O)Cn2nnc(C(=O)NCc3ccc(OC)cc3)c2N)cc1,-0.6,-1.1,-5.9,-13.2,-0.4,i,-1.6,-1.4
Cc1ccc(OCCn2cc(C(=S)N3CCCC3)c3ccccc32)cc1C,-14.8,-15.7,-6.9,-7.0,-11.7,i,/,-11.4
C=CCn1c(O)c(N=NC(=S)Nc2ccccc2C)c2cc(S(=O)(=O)N3CCOCC3)ccc21,16.6,8.7,30.6,-19.3,-4.4,/,37.2,7.9
Cc1nn(CC(=O)Nc2ccccn2)c(=O)c2ccccc12,-4.0,3.0,6.3,5.6,1.7,i,-43.8,-7.0
CCN(CC)S(=O)(=O)c1cccc(C(=O)N2CCCCC2)c1,-8.9,-1.3,/,-11.1,-0.4,i,/,-1.1
O=C(/C=C/c1cccc(F)c1)Nc1cc(S(=O)(=O)N2CCOCC2)ccc1Cl,/,-0.1,53.0,-13.6,-10.1,/,-215.2,/
CCN1CCN(Cc2cccc(Oc3ccccc3)c2)CC1,18.5,7.4,43.3,-17.3,3.2,i,/,-4.4
CCOc1cc(/C=C2\CCCC(C(=O)C(F)(F)F)=C2O)ccc1O,2.4,3.0,17.6,/,4.2,i,16.7,-5.9

More entries follow.
SMILES,PABP FP inh,MT1-MMP act inh,CSC inhib,Yeast UUG start,MT1-MMP act inh RFP,Rce1 inh,Env fusion inh,eIF4H inh
COC(=O)c1ccc(COC(=O)c2ccc(CS(=O)(=O)c3ccc(C)cc3)cc2)cc1,-4.5,2.0,9.1,-10.5,-4.2,i,/,-3.5
COc1ccc(C2Nc3ccccc3C(=O)N2c2ccc(C)cc2)cc1Cn1nnc2ccccc21 (stereo not given),-4.3,16.2,-5.6,-11.5,-2.2,i,/,-14.6
COC(=O)c1ccccc1NC(=O)Nc1cnccn1,-0.1,5.9,-3.8,-15.8,9.5,i,-80.1,-9.0
Cc1cc(C)c(C(=O)COC(=O)CCNS(=O)(=O)c2c(Cl)cccc2Cl)cc1C,-2.2,5.0,-0.2,-2.2,5.7,i,/,-6.8
C/C(=N\NC(=O)CNC(=O)c1ccc(Br)cc1)c1ccco1,/,-0.1,-19.6,-15.2,-3.7,i,2.6,/
Cc1ccc([N+](=O)[O-])c(OCCN2CCc3ccccc3C2)c1,-3.4,2.5,10.9,-4.8,-2.2,i,-7.3,9.9
O=C(CCCc1ccccc1)NCCc1ccc(F)cc1,-8.4,-2.6,2.9,-10.9,-0.2,i,-50.9,6.0
